LANA-H2B inh – blocks KSHV LANA binding to histone H2A/H2B; inhibition, % (test concentration not listed); cell-free LANA-H2A/H2B peptide, fluorescence polarization; AID 2629; 320,000 tested, 0.6% active; in the data active = inhibition mostly above about 10%, no sharp cut-off; inactive = mostly below about 6.7%;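 also: stock transfer was 7.5 nL into about 10 µL; 0% = median of vehicle wells and 100% = median of positive control wells; one replicate is shown; the record names a cut of 25% in any replicate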
Beta apoptosis – beta cell apoptosis inhibition; INS-1E cytokine-induced death, ATP luminescence, 48 h; percent of positive-control rescue, neutral wells zero; protection from apoptosis, % (no concentration beside the values); 300,000 tested, 0.8% active; AID 435005;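 active = all replicates at 75% or more, or half of them and the mean; inconclusive = half reach 75% but not the mean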;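 also: 0% = cytokine-treated negative control wells and 100% = positive control rescue; higher means more ATP so stronger rescue from cytokine killing; wells of about 40 µL received 100 nL stock; the first replicate is given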
A1 inh – inhibitors of the anti-apoptotic protein A1, read as caspase activation | AID 2462 | 330,000 tested, 0.066% active | caspase activation, % (test concentration not listed) | MEF A1-2A-BIM cells, Caspase-Glo 3/7 luminescence, 3 h; percent of clofoctol response, vehicle zero;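 active = over half of replicate activation scores above 10%, or exactly half above 10 with the replicate mean above 10; inconclusive = replicate mean below 10 yet half the replicates above 10; inactive = over half of replicates below 10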;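 also: wells of about 30 µL received 50 nL stock; many hits fall short of the cut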
T cruzi inh – T. cruzi replication inhibition; T. cruzi beta-gal in NIH3T3, luminescence, 90 h; inhibition, % (concentration not given with the values); 300,000 tested, 1.4% active;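 active = mean inhibition across valid replicates above about 55%, limit read from the data; inconclusive = mean below that limit but half or more replicates reach it; inactive = mean below it, under half of replicates reach it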;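 also: signal also drops with host cell toxicity which is not excluded here; 0% = plate median of DMSO wells and 100% = zero luminescence signal; higher percent means less beta-gal luminescence so fewer parasites; stock transfer was 50 nL into about 50 µL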
Calb FLC – affects C. albicans growth with fluconazole. AID 1979. growth inhibition, % (no concentration beside the values). C. albicans CaCi-2 (fluconazole-resistant clinical isolate) + fluconazole, Alamar Blue growth, 48 h. 300,000 tested, 0.57% active;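 active = most replicates above 75%; inconclusive = exactly half above 75%; inactive = most below 75%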;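 also: all wells also contain fluconazole at 8 µg/ml as a sub-toxic cotreatment; 0% = median of DMSO wells and 100% = median of geldanamycin control wells; wells of about 8 µL received 7.5 nL stock; the first replicate is given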
B2AR ag – agonists of human beta-2 adrenergic receptor inducing internalization; Am2.2-beta2AR cells, FAP receptor internalization, flow cytometry; reference of the scale not given here; 340,000 tested, 0.43% active; response, % (test concentration not listed);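 active = response above a set limit, near 3 SD of response in nonfluorescent compounds, cut at about 42% in these data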;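 also: stock transfer was 100 nL into about 11 µL; a reference agonist was the positive control; negative values mostly stem from fluorescent compounds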
Target sequence (P07550 whole entry, looked up): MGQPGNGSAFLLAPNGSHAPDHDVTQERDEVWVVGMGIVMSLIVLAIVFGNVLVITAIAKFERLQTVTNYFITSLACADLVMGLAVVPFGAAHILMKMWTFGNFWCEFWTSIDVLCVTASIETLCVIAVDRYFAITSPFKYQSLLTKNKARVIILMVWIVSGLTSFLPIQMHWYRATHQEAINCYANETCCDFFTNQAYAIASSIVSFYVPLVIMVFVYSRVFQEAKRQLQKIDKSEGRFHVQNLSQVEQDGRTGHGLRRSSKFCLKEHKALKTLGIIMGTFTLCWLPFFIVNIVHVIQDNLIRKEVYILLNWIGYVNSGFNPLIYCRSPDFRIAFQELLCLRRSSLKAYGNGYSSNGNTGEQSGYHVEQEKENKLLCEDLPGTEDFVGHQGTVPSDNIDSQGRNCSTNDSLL
RanGTP-Impb inh – inhibitors of RanGTP-importin-beta interaction, primary screen, biochemical, FRET, CFP-Ran, YFP-importin-beta, homogeneous. cell-free CFP-Ran/YFP-importin-beta FRET ratio. inhibition, % (test concentration not listed). 300,000 tested, 1.1% active;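 active = most replicates above 15%; inconclusive = exactly half above 15%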;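 also: 0% = DMSO wells and 100% = Ran loaded with GDP instead of GTP; wells of about 40 µL received 100 nL stock; the first replicate is given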
UCH37 DUB inh – human UCH37 deubiquitinating enzyme inhibition; purified proteasome/UCH37, Ub-AMC cleavage fluorescence; inhibition, % (concentration not given with the values); 330,000 tested, 0.33% active; AID 588478;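 active = mean of two replicates above 20%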;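 also: 0% = compound-free wells with enzyme and 100% = wells lacking proteasome; stock transfer was 100 nL into about 20 µL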
Target sequence (Q9Y5K5 whole entry, looked up): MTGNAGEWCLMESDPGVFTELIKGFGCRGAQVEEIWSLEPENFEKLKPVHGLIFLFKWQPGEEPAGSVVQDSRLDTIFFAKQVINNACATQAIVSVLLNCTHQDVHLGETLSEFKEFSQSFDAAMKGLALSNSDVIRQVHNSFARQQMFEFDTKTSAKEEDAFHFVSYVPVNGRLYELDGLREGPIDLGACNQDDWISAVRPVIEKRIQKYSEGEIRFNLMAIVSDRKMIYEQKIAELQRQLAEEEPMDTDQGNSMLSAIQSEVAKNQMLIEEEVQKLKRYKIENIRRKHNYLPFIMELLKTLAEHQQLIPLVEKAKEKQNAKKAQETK
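System: Proteasome-associated human UCH37 deubiquitinase; Input: 0.15 nM proteasome in added enzyme buffer; Also added: Ub-AMC substrate from 1 µM stock; Incubation: 30 min compound-proteasome preincubation then 25 min substrate reaction, room temperature; Detection: fluorescence, ex 355 nm, em 460 nm; Read-out: % inhibition of Ub-AMC cleavage fluorescence; Benchmarks: no-proteasome and no-compound wells.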
* hit, by the source's call; ? = inconclusive; . = no result given; & = joins results of further samples.

SMILES	LANA-H2B inh	Beta apoptosis	A1 inh	T cruzi inh	Calb FLC	B2AR ag	RanGTP-Impb inh	UCH37 DUB inh
CN(C)CCCOC(=O)Cc1ccc(Cl)cc1	0.6	-5	-0.1	1	5	-3	-0.7	1.1
COc1ccccc1N(CC(=O)NC1CCCC1)C(=O)CNC(=O)c1cccs1	-6.0	-8	0.6	0	35	-24	2.3	4.1
O=C(NNc1ccccc1[N+](=O)[O-])Nc1ccc(F)cc1F	2.6	-5	-0.5	6	-3	1	0.1	2.2
N=c1n(Cc2ccccc2)c2ccccc2n1Cc1ccccc1	4.6	13	0.1	-6	6	21	-2.9	6.3
COc1ccc(-n2c(Cn3nc(C(F)(F)F)cc3C)n[nH]c2=S)cc1	-3.5	2	-0.9	-5	8	-2	-4.2	1.0
COc1cccc(CN(C)C(=O)c2ccccc2SCC(=O)N2CCCC2)c1	-4.3	-1	-0.2	-3	10	-6	5.0	-0.5
CC(C)OC(=O)CSc1nnc(-c2cnccn2)n1-c1ccccc1	5.3	-8	0.1	-9	17	6	3.1	4.7
CC(Oc1cccnc1[N+](=O)[O-])C(=O)Nc1ccc(F)cc1 (stereo not given)	-0.2	-3	-0.6	.	.	-2	.	0.5
CC(C)=C1C2CCC1C1C(=O)N(c3nccs3)C(=O)C21 (stereo not given)	-3.3	-10	-0.1	-11	3	0	4.8	-0.7
Cc1ccc2cccc(OCC(=O)Nc3cccc(S(=O)(=O)N4CCCC4)c3)c2n1	-0.3	3	0.1	.	.	17	.	1.4
CCOC(=O)C1(Cc2cccc(OC)c2)CCN(Cc2cccc3c2OCO3)CC1	1.3	-2	-0.2	47	-14	6	1.6	3.2
CC1Cc2cc(/C(O)=C3/C(=O)C(=O)N(CCCN4CCOCC4)C3c3ccc(C(C)C)cc3)ccc2O1 (stereo not given)	-0.9	-9	0.0	-9	-2	4	6.1	7.2
Cc1nc2c(c(-c3ccccc3)c1C#N)C(=O)c1ccccc1-2	1.4	5	-1.1	7	1	-9	-0.4	-1.1
COCCCn1c2nc3ccccc3nc2c2c(=O)n(-c3ccccc3OC)c(C)nc21	1.9	-3	0.6	17	-8	.	?	-111
COc1ccc(N2C(=O)[C@@H]3C(c4cccnc4)=NO[C@@H]3C2=O)cc1	5.3	4	0.2	-10	-4	4	-1.5	3.1
COc1cc(C(=O)NCCc2ncccc2C)ccc1OC1CCN(C(C)=O)CC1	-2.9	-3	0.0	1	-6	3	4.3	0.8
Cc1cccc(NC(=O)c2cc(S(=O)(=O)N3CCC4(CC3)OCCO4)ccc2F)c1	-3.9	-1	0.0	10	16	5	1.9	2.4
Cc1cccc(C)c1NC(=O)CN(C)C(C)C(=O)Nc1ccccc1-c1ccccc1 (stereo not given)	-1.9	-2	-0.3	-1	6	-4	4.4	2.9
Cc1ccc2oc(=O)c3cnn(CC(=O)Nc4ccccc4N4CCN(C)CC4)c3c2c1	-2.7	25	-0.6	32	1	0	1.0	3.7
CCn1cc([N+](=O)[O-])c(C(=O)Nc2nc(-c3ccc(C)c(C)c3)c(C)s2)n1	11	2	-1.2	-19	-13	-5	5.6	1.9
CCn1c(SCC(=O)OC)nc2sc3c(c2c1=O)CC(C)(C)OC3	-0.1	-5	1.2	0	5	5	5.8	0.5
O=S(=O)(NNc1cccc(Cl)n1)c1ccc(Cl)cc1	.	.	.	8	6	-4	4.3	2.5
Oc1[nH]c2ccccc2c1N=NC(=S)N1CCOCC1	0.2	83*	-1.0	56*	-10	5	7.4	.
Cc1ncc([N+](=O)[O-])n1CC(=O)Nc1ccc(F)c(Cl)c1	2.1	-3	0.0	-26	-10	0	3.3	3.4
CC(C)(C)NC(=O)C(c1ccccc1F)N(Cc1ccco1)C(=O)c1csnn1 (stereo not given)	-5.6	-4	.	18	0	-4	2.5	3.5
Cn1cc(C(=O)N/N=C/c2ccc3c(c2)OCO3)c2ccccc21	-11	9	-0.1	-6	-33	-11	2.0	.
CCCOc1ccccc1C(=O)N(Cc1ccco1)C1CCS(=O)(=O)C1 (stereo not given)	-2.8	-1	0.3	4	?	3	-2.2	5.9
C/C(CC(=O)Nc1ccccn1)=N\NC(=O)c1ccncc1	1.2	-6	0.2	-3	-6	.	1.4	.
Cc1ccc(S(=O)(=O)N(C)C)cc1NC(=O)CN1CCN(Cc2ccccc2)CC1	-0.8	-1	0.6	16	1	2	1.5	-1.2
CCN(Cc1ccccc1)C(=O)c1cccc(S(=O)(=O)N2CCN(Cc3ccccc3)CC2)c1	2.9	6	-0.5	-2	0	0	0.0	-0.6
O=C(NCCc1ccccn1)/C(=C/c1ccco1)NC(=O)c1ccccc1	-0.4	0	-0.2	-2	2	-2	-2.3	3.2
O=C(Nc1ccccc1)N1CCCN(Cc2c(F)cccc2Cl)CC1	-3.2	-9	0.9	20	6	7	-0.7	5.2
CCOC(=O)/C(C#N)=c1/s/c(=C2\C=Cc3ccccc3N2CC)c(=O)n1CC	-0.2	1	0.0	13	11	5	2.1	.
COc1ccccc1C(=O)N1C(CC(=O)Nc2ccccc2C)C(=O)NC2CCCCC21 (stereo not given)	2.7	-4	-0.5	-9	-7	10	-1.0	2.7
CCOC(=O)C1=C(C)NC(SCC(=O)OC)=C(C#N)C1c1ccc(C(=O)OC)cc1 (stereo not given)	4.6	-3	0.2	16	34	-12&-6	-2.6	-1.3&-6.6
Cc1ccc2cc(NC(=O)c3ccccc3C)ccc2n1	-3.8	.	-5.5	-5	-9	-1	-3.6	-3.5
CCOC(=O)C1=CC[C@@H](c2cccc(C)c2)N(S(=O)(=O)c2ccc(C)cc2)[C@H]1C(=O)OCC	-0.4	6	0.2	.	.	12	.	1.8
Cc1ccc(NC(=O)CN(C)S(=O)(=O)c2cccs2)cc1F	1.3	-1	1.2	-4	11	0	-2.5	-0.1
CCOCCCn1c(=S)[nH]c2cc(C(=O)NC3CCCC(C)C3C)ccc2c1=O (stereo not given)	-5.9	6	-1.3	4	-6	-1	-1.9	3.3
O=C(Nc1cc(C(F)(F)F)ccc1N1CCOCC1)c1ccco1	-9.7	-4	0.8	-3	3	-5	-6.7	-3.4
Fc1ccc(C(c2nnnn2C2CCCC2)N2CCc3ccccc32)cc1 (stereo not given)	-4.6	9	-0.4	21	56	9	-0.7	4.1
Nc1nc(N)c2sc3nc4c(cc3c2n1)CCC4	4.7	-1	-5.3	-5	-3	-5	?	-17
COc1cc(C2=NOC(C(=O)Nc3ccc(C(C)=O)cc3)C2)cc(OC)c1OC (stereo not given)	-4.1	-2	-1.0	17	42	-2	0.1	2.7
Cn1c2ccccc2c(=O)c2c(=O)n(-c3ccccc3)c(C3CCCCC3)nc21	3.0	9	-0.3	35	?	-2	?	4.4
Cc1ccc(SC[C@H](c2ccccc2)N2CCN(CCc3ccccc3)CCC2=O)cc1	-2.1	4	0.4	6	-12	3	-5.8	0.8
CC(C)Cn1c(SCC(=O)N2CCc3ccccc3C2)nc2cc(Cl)ccc2c1=O	8.3	115*	-1.1	18	5	-4	-2.6	-15
CN1CCC(=C(c2ccc(Cl)cc2)c2ccccn2)CC1	2.7	2	1.5	69*	-2	-3	2.9	.
Cc1ccc(-n2nnnc2SC(C)C(N)=O)c(C)c1 (stereo not given)	1.4	-4	0.2	-2	-3	-5	5.1	5.1
Cc1ccc(S(=O)(=O)N(C)c2ccc(OCc3cccc(C)c3)cc2)cc1	7.1	-2	-0.2	9	-15	-9	1.9	7.2
COc1cc2cc(C(c3nnnn3C(C)(C)C)N3CCC(C)CC3)c(=O)[nH]c2cc1OC (stereo not given)	-1.4	.	1.3	4	1	-2	?	-80
C/C(=N\NC(=O)c1ccccc1)c1cccc(Br)c1	0.0	.	-0.1	-9	?	3	2.9	.
CCc1ccc(NC(=O)COC(=O)/C=C/c2ccco2)cc1	-2.3	-6	1.4	.	.	0	.	2.2
COc1ccccc1C(=O)NC(=O)CSc1nncn1C	-2.8	1	0.6	13	0	-6	-5.7	-0.3
CCn1ncc(/C=N\NC(=O)c2csc3ccccc23)c1C	-6.6	11	0.0	-22	1	5	2.4	.
O=C(c1ccccc1F)N1CCN(c2cnn(-c3cccc(Cl)c3)c(=O)c2Cl)CC1	-0.6	29	0.2	-10	0	-3	-0.7	4.7
Cc1ccc(S(=O)(=O)N2CCN(C(=O)COC(=O)Cc3cccc(C(F)(F)F)c3)CC2)c(C)c1	-0.5	-1	-0.4	8	6	0	1.7	-1.9
O=S(=O)(Nc1ccc(Cc2ccncc2)cc1)c1cccs1	7.4	0	-0.5	-5	-8	-10	0.3	4.8
Cc1ccc(-n2nc3c(N4CCC(C(=O)NCCc5ccccc5C)CC4)nnc(C)c3c2C)cc1	0.6	62	-1.2	55*	1	-4	4.6	.
CN(/N=C/c1ccc([N+](=O)[O-])o1)c1ccccc1	1.6	-6	0.5	60*	7	-8	-7.9	.
O=C(Cc1ccc(Br)cc1)Nc1ccc2[nH]ncc2c1	12	-16	0.9	25	2	-2	9.5	0.1

Some values from above.
B2AR ag with Cc1ccc(S(=O)(=O)N(C)c2ccc(OCc3cccc(C)c3)cc2)cc1 stands at -9
T cruzi inh with CN(/N=C/c1ccc([N+](=O)[O-])o1)c1ccccc1 stands at 60*

Following part
SMILES	LANA-H2B inh	Beta apoptosis	A1 inh	T cruzi inh	Calb FLC	B2AR ag	RanGTP-Impb inh	UCH37 DUB inh
CC(C)c1nnc(NC(=O)Cc2ccccc2[N+](=O)[O-])s1	1.5	-2	0.5	4	-6	1	-0.5	5.8
CCOC(=O)c1sc2nc(CC(=O)OC)nc(NCc3ccc(F)cc3)c2c1C	-7.4	19	0.6	17	-1	5	4.7	-50
COc1ccc(-c2nc(CCl)cs2)cc1	-5.0	-6	-1.5	6	?	2	0.6	3.4
CN(C)C=NC(=O)c1cc(C(=O)c2ccc(Cl)cc2)c[nH]1	-2.4	-6	1.4	-7	-2	-3	6.9	5.1
CNc1nc(-c2ccccc2)[n+](-c2ccc(C)cc2)s1	1.3	0	?	22	3	13	-0.8	-0.8
N#Cc1c(/N=C\c2ccc(O)c([N+](=O)[O-])c2)sc2c1CCCC2	-6.5	-2	0.1	-12	12	-6	-3.3	.
Cn1c(CN2CCN(C(=O)c3ccccc3)CC2)nc2cc([N+](=O)[O-])ccc21	1.5	7	0.1	0	-35	2	-2.1	3.5
CCCCC(=O)Nc1ccc(NC(=O)c2cnccn2)cn1	-0.5	-3	-1.8	-6	-5	0	172*	4.0
Cc1cccc(N2CC(C(=O)Nc3nnc(SCC(=O)Nc4nccs4)s3)CC2=O)c1 (stereo not given)	-6.9	-11	1.1	-8	-8	-2	0.7	-0.7
O=C(Nc1ccncc1)Nc1cccc(F)c1	0.4	-8	-4.2	38	?	4	2.3	-0.2
CCn1cc(/C=N/O)c(C)n1	1.1	-2	0.4	-10	7	5	6.3	.
Cc1nc(SCC(=O)CC(=O)OC(C)C)c(C#N)c(C)c1C	0.8	.	1.1	-14	-12	4	2.5	-7.2
CN(C)c1ccc(N=Nc2ccccc2C(=O)OCC(=O)N(C)C2CCCCC2)cc1	-6.7	6	-0.3	13	5	-3	-0.9	12

Compound activity: PubChem, several laboratories
